Screening data as filed in PubChem.
VLA-4 inh = inhibition in a human VLA-4 binding assay; VLA-4 expressing cells, ligand binding flow cytometry; inhibition, % (about 7 µM as worked out from the volumes in the protocol); actives 0.2% (n = 330,000); AID 2557; in the data active means inhibition above about 50%
Bcl-xL primary = Bcl-xL (human) inhibition; Q07817; GST-Bcl-xL / FITC-Bim BH3 peptide fluorescence polarization; inhibition, % at 10.9 µM; actives 0.7% (n = 320,000); AID 2129;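 active means inhibition above the mean of all tested compounds plus 3 SD, cutoff set per campaign, cut at about 30% in these data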;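 further: 0% = DMSO wells and 100% = unlabeled Bim-BH3 peptide competitor; inhibitors lower millipolarization by displacing the labeled peptide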
MCL1 BIM primary = MCL1-BIM-BH3 interaction inhibition (human) | inhibition, % at 10.9 µM | GST-MCL1 / FITC-Bim-BH3 fluorescence polarization | Q07820 | actives 0.68% (n = 320,000);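 active means inhibition above the mean inhibition of all tested compounds plus 3 SD, set per campaign, cut at about 40% in these data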;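 further: 0% = DMSO wells and 100% = unlabeled Bim-BH3 peptide control; higher means more loss of mP so more displacement of Bim peptide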
MEX-5 binding = C. elegans MEX-5 TCR-2 RNA binding activity; actives 0.38% (n = 300,000); activity score (negative = inhibition of binding), % at 10 µM; MEX-5/FITC-TCR2 RNA binding, fluorescence polarization; active compounds read low; AID 1832; Q9XUB2;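 active means inhibition past about -25% in most replicates, and total fluorescence under double the plate's negative control median, limit read from the data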;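 further: 0% = DMSO and -100% = 5 µM competing unlabeled TCR2 RNA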
Target sequence (Q9XUB2 whole entry, looked up): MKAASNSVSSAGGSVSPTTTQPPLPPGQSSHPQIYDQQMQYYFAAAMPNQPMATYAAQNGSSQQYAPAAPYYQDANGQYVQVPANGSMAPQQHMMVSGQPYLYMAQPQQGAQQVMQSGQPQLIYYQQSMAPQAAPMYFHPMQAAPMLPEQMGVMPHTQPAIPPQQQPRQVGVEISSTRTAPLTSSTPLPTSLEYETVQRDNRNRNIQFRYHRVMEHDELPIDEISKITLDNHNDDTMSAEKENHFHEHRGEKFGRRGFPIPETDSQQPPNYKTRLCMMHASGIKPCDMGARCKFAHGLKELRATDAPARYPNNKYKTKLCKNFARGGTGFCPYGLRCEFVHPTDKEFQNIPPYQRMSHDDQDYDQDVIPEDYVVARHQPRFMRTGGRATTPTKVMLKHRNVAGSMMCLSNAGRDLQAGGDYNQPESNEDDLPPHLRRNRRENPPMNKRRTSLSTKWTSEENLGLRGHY
Efflux pump inh = antifungal efflux pump inhibition, Nile Red retention. S. cerevisiae Candida pump triplex. actives 0.44% (n = 330,000). inhibition, % at 10 µM. AID 485275;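 active means plate passing quality check with inhibition over a set limit, or well fluorescence over plate mean plus 4 SD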;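 further: Nile Red retained in pooled yeast measured as flow cytometry median fluorescence; 0% = buffer negative control and 100% = Enniatin B positive control; higher means more Nile Red kept so more efflux inhibition; some compounds called inactive have numbers as strong as hits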
Numbers without * were called inactive; · = no result given; & = joins results of further samples.

Abbreviations – A = VLA-4 inh; B = Bcl-xL primary; C = MCL1 BIM primary; D = MEX-5 binding; E = Efflux pump inh
SMILES: COc1ccc(Cc2nnc(Nc3ccccc3)s2)cc1Br
  A: -4.7; B: 26.3; C: 31.8; D: -0.3; E: 0.1

SMILES: Cc1ccc2nc(-c3sc4nc(C)ccc4c3N)[nH]c2c1
  A: -5.0; B: 5.2; C: 5.8; D: 3.4; E: -0.1

SMILES: O=C(O)C1CC(c2ccc(F)cc2)=NO1 (stereo not drawn)
  A: 17.0; B: -1.3; C: 2.4; D: -1.6; E: -0.2

SMILES: CNCC(O)c1ccc(O)c(O)c1 (stereo not drawn)
  A: 16.2; B: 5.4; C: 10.1; D: -2.3; E: -0.1

SMILES: O=c1oc(-c2ccccc2NS(=O)(=O)c2ccc(F)cc2)nc2ccccc12
  A: 0.0; B: 3.0; C: 9.6; D: 0.8; E: 0.1

SMILES: Fc1ccc([C@@H]2CCNC[C@H]2COc2ccc3c(c2)OCO3)cc1
  A: 31.0&18.5; B: -1.7&5.0; C: 5.6&9.2; D: 0.8&1.7; E: -0.2&-0.1&0.3

SMILES: CC(C)NC[C@H](O)c1ccc(O)c(O)c1
  A: 2.9; B: 3.7; C: 11.4; D: ·; E: 0.0

SMILES: O=C(N/N=C\c1ccccn1)c1cccc(C(=O)N/N=C\c2ccccn2)n1
  A: 0.2; B: 6.4; C: 10.9; D: -7.9; E: 0.0

SMILES: CN(C)CCOC(c1ccccc1)c1ccccc1 (tested in a mixture with another compound)
  A: -3.9; B: -0.1; C: 2.3; D: 3.0; E: -0.1

SMILES: CCOc1ccc(/C=N/NC(=O)c2cc3c(OC)cc(OC)cc3[nH]2)cc1OC
  A: 12.3; B: 5.4; C: 6.9; D: 2.1; E: -0.2

SMILES: O=C(CCS(=O)(=O)c1ccc(Br)cc1)N1CCCCCC1
  A: 15.8; B: 1.5; C: 1.3; D: 0.1; E: 0.0

SMILES: O=[N+]([O-])c1ccc(N/N=C/c2cccc(O)c2)cc1
  A: -8.4; B: -24.6; C: -41.8; D: 3.3; E: 0.1

3 entries picked at random from those above, as already listed:
Abbreviations – A = VLA-4 inh; B = Bcl-xL primary; C = MCL1 BIM primary; D = MEX-5 binding; E = Efflux pump inh
SMILES: Cc1ccc2nc(-c3sc4nc(C)ccc4c3N)[nH]c2c1
  A: -5.0; B: 5.2; C: 5.8; D: 3.4; E: -0.1

SMILES: O=[N+]([O-])c1ccc(N/N=C/c2cccc(O)c2)cc1
  A: -8.4; B: -24.6; C: -41.8; D: 3.3; E: 0.1

SMILES: CN(C)CCOC(c1ccccc1)c1ccccc1 (tested in a mixture with another compound)
  A: -3.9; B: -0.1; C: 2.3; D: 3.0; E: -0.1

Single records, as listed above.
Listed for `O=[N+]([O-])c1ccc(N/N=C/c2cccc(O)c2)cc1` : VLA-4 inh: -8.4; Bcl-xL primary: -24.6; MCL1 BIM primary: -41.8; MEX-5 binding: 3.3; Efflux pump inh: 0.1
Listed for `CCOc1ccc(/C=N/NC(=O)c2cc3c(OC)cc(OC)cc3[nH]2)cc1OC` : VLA-4 inh: 12.3; Bcl-xL primary: 5.4; MCL1 BIM primary: 6.9; MEX-5 binding: 2.1; Efflux pump inh: -0.2

Some of the compounds tested. The share of hits here may be higher or lower than overall.
